Source: PubChem (several laboratories)
Arbovirus inh: antivirals against arbovirus infection, primary screen, cell-based, full library, 10K replicate subset; arbovirus infection cell-based antiviral screen; inhibition, % at 10 µM; actives 0.37% (n = 200,000);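 active = inhibition from about 30%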;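 note: bluetongue infection of BSR cells; cell survival read as ATP light after 72 h; 0% = infected wells without compound and 100% = uninfected wells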
YopH inh: YopH tyrosine phosphatase inhibitors, primary screen, biochemical, fluorescence Ex485/Em525 | YopH tyrosine phosphatase [Yersinia enterocolitica] | actives 0.16% (n = 140,000) | inhibition, %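 (about 10 µM by stock and volumes)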;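 active = inhibition of 50% or more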;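 note: controls were vehicle for no effect and minimum signal wells for full effect; inactives centre near -20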
RecA intein inh: Mtb RecA intein splicing inhibitors, primary screen, biochemical, fluorescence, HTS; cell-free RecA intein splicing; AID 2221, 2009; actives 0.75% (n = 290,000); inhibition, %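 (about 9 µM by stock and volumes)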; Protein RecA (Mycobacterium tuberculosis (strain ATCC 25618 / H37Rv)), P9WHJ3; in the data active = inhibition above about 30%; inconclusive = no clear call, values can overlap the other calls;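 note: 0% = vehicle wells and 100% = reference inhibitor control wells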
Target sequence (P9WHJ3 whole entry, looked up): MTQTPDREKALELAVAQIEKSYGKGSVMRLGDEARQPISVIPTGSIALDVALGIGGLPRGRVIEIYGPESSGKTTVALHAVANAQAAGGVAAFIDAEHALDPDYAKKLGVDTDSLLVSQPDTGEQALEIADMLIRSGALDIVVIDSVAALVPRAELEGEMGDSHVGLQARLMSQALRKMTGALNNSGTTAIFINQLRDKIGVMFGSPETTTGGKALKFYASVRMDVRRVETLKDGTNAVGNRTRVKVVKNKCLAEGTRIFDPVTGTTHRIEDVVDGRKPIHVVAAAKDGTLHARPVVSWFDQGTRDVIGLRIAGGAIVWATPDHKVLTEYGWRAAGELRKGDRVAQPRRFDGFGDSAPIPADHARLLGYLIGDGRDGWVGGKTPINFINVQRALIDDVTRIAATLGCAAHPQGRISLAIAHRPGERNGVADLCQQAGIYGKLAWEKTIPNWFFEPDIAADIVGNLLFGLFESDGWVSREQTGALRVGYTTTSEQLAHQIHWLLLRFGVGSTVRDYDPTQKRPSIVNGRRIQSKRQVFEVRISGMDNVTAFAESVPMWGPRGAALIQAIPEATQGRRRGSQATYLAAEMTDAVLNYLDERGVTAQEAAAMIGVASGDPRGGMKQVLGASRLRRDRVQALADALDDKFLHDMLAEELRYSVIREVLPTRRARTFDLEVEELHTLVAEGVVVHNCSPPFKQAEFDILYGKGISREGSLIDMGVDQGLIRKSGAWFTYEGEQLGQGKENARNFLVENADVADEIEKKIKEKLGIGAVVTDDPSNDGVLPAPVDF
Mtb H37Rv: M. tuberculosis H37Rv growth inhibitors, H37Rv strain (AID 1626); M. tuberculosis H37Rv growth inhibition; higher % means a stronger effect; one-dose inhibition, % at 10 µM; IC50 in µM for titrated hits; actives 0.95% (n = 220,000);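 active = confirmed in a dose series; inconclusive = inhibition above 80% but not taken into the dose series; inactive = below 80% or under 30% at every dose of the series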;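 note: bacteria incubated seven days before Alamar blue readout; 0% = bacteria only wells and 100% = bacteria with antibiotic wells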
Mtb bLac sens: beta-lactam sensitization of Mtb H37Rv, H37Rv | M. tuberculosis H37Rv growth with meropenem, percent inhibition; hits of this screen are not shown here | inhibition, % at 25 µM | actives 0.27% (n = 330,000) | AID 434955, 2010;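 active = about 74% or more and at least 40 points above the plate without the antibiotic, then above 30% in a dose series; inconclusive = first-round hits that could not be retested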;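 note: growth measured after seven days incubation then overnight dye step; 0% = bacteria only wells and 100% = bacteria with antibiotic; twin plates without the antibiotic show which effects depend on it; some results filed as inactive read as strong as hits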
Arbovirus inh repeat: further read-out of Arbovirus inh, marked with its call; inhibition, %; measured here: 10K subset replicate screen; many hits read low in the repeat;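 first of two repeat runs on a subset; 0% = infected and 100% = uninfected wells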
Numbers without * were called inactive; ? = inconclusive; . = no result given; & = joins results of further samples.

SMILES	Arbovirus inh	YopH inh	RecA intein inh	Mtb H37Rv	Mtb bLac sens	others
Cn1c(=O)n(-c2ccccc2)c(=O)c2c3c(sc21)COC(C)(C)C3	-1	-48	-3.3	5%	-6
CCc1nc(N2CCN(C(C)=O)CC2)c2c3c(sc2n1)CCCC3	.	.	0.1	.	-8
C#CC[N+]1(C)C2CCC1CC(O)C2 (configuration not stated)	1	.	-1.1	6%	8
CC(C(=O)N1CCCc2ccccc21)N1CCN(c2ccccn2)CC1 (configuration not stated)	5	.	1.5	1%	-1
O=C(NCc1ccc2c(c1)OCO2)c1cc2c(s1)CSC2	-7	-27	-4.7	-5%	-11	Arbovirus inh repeat=0
CC(=O)c1ccc(N2CCN(C(=O)c3ccc4c(c3)OCO4)CC2)cc1	.	.	-2.3	.	-12
COc1cc2c(cc1OC)CN(Cc1cc(=O)oc3c(C)c(C)ccc13)CC2	17	-11	-21	1%	5
COc1ccc(C(=O)NCCCN2CCOCC2)cc1S(=O)(=O)N1CCCc2ccccc21	1	.	2.2	-5%	-4
COc1cc(C(=O)NCCc2nc3ccccc3n2C)cc(OC)c1OC	-7	-11	0.6	-9%	-8
CC(C)(O)C(=O)N/N=C\c1ccc(OC/C=C/c2ccccc2)cc1	.	.	0.5	.	0
c1ccc(Nc2cccc(Nc3ccccc3)n2)cc1	-8	-19	9.8	34%	24
Cc1cccc(C(=O)N2CCC(c3nc4ccccc4s3)CC2)c1	12	.	.	2%	-4
CCN(CC)S(=O)(=O)C1CCS(=O)(=O)C1 (configuration not stated)	6	-31	-1.3	-1%	2
Cc1cccc(C)c1NC(=O)CNC(=O)Cn1nc(C)c(C)c(C#N)c1=O	.	.	3.4	.	-6
CCC(c1nnnn1C1CCCCC1)N1CCN(C2CCCC2)CC1 (configuration not stated)	16	-21	1.4	1%	-11
O=c1c2ccccc2nc(-c2ccc(Cl)cc2)n1C1CCS(=O)(=O)C1 (configuration not stated)	.	1	-3.4	9%	-1
Clc1ccc(-c2c[n+](Cc3cccc(Cl)c3)c3n2CCC3)cc1	-11	-12	4.0	1%	-3
Cc1c(C(=O)N/N=C/C(C)C)[nH]c2ccc([N+](=O)[O-])cc12	1	-20	0.9	5%	-5
COCCCn1c(SCC(=O)NC2CCCC2)nnc1-c1ccccc1	.	.	-2.6	.	4
CCC(C)(C)NC(=O)C(c1ccccn1)N(C(=O)c1csnn1)c1ccc(C)c(C)c1 (configuration not stated)	-2	.	-4.5	1%	7
Cc1ccccc1-c1nc2c(s1)CCc1onc(-c3ccc(Cl)cc3)c1-2	.	.	1.9	.	6
COCCNS(=O)(=O)c1cccc2cccnc12	7	-43	.	-11%	-1	Arbovirus inh repeat=-2
C[C@H](CCC(=O)O)[C@H]1CC[C@H]2[C@@H]3[C@H](O)C[C@@H]4C[C@H](O)CC[C@]4(C)[C@H]3C[C@H](O)[C@]12C	.	.	-1.6&0.5&-1.5	-7%	2&-5&-16
O=C(NNC(=O)C1CCCO1)c1ccc([N+](=O)[O-])cc1 (configuration not stated)	.	.	-3.4	.	-10
CCN(CCO)Cc1csc2ccc(Br)cc12	11	-2	-2.0	6%	25
Following part
SMILES	Arbovirus inh	YopH inh	RecA intein inh	Mtb H37Rv	Mtb bLac sens	others
COc1ccc(S(=O)(=O)N2CCC(C(=O)Nc3nnc(CCN4CCCCC4)s3)CC2)cc1	-7	-38	-3.2	-6%	-3
O=Cc1ccc(-c2cccc([N+](=O)[O-])c2)o1	.	.	-7.3	-1%	2
CCN1CCCC1CNCC(O)COc1ccc(C(C)(C)C)cc1C (configuration not stated)	-28	.	-2.5	11%	16
COc1cccc(NC(=O)CN(C)CC(=O)Nc2ccc(C)cc2Cl)c1	19	.	0.7	-7%	-9
COc1ccc(C(=O)NC(=S)N2CCN(c3ccc([N+](=O)[O-])cc3)CC2)cc1	-4	-24	1.9	13%	-1
CCCCC(=NCCc1c(C)[nH]c2ccc(OC)cc12)C1=C(O)CC(c2ccccc2)CC1=O (configuration not stated)	-1	.	3.5	7%	1
CCCCCCNCC1OCc2ccccc2CO1	-5	-19	2.5	-2%	-6
O=C(O)c1[nH]c2ccccc2c1C(c1cccc(O)c1)c1c(C(=O)O)[nH]c2ccccc12	.	.	2.7	.	-11
Cc1ccc(S(=O)(=O)NC(=O)Nc2nnc(C)s2)cc1	26	-41	0.5	-3%	-3
CCOC(=O)c1sc(Nc2nc(OC)cc(OC)n2)nc1C	-3	.	-0.9	14%	-3
COc1ccc(N2CCN(C3CCCN(C(=O)CN4CCCC4=O)C3)CC2)cc1 (configuration not stated)	.	.	-7.3	.	6
Cc1cccc(-n2cnc(C(=O)NNC(=S)Nc3ccccc3)c2)n1	-5	.	.	-3%	-2
Nc1nc(COc2ccc3ccccc3c2)cs1	1	-37	1.8	7%	-5
O=C(NC(Cc1ccccc1)C(=O)N1CCN(c2ccccn2)CC1)c1ccco1 (configuration not stated)	3	17	0.5	-2%	-20
COC(=O)CN1C(=S)N(C)C(=O)/C1=C/c1cccs1	14	.	2.3	?	98
COc1cc(NC(=O)CSCc2ccc(Cl)cc2)c(C(=O)O)cc1OC	.	.	-1.9	.	2
COc1ccc(CCNC(=S)NC(=O)c2ccccc2)cc1C	.	.	3.0	5%	5
CCN1CCN(C(=O)C2CCN(S(=O)(=O)c3ccc(Br)cc3)CC2)CC1	.	.	0.5	.	4
CC(C)NS(=O)(=O)c1ccc(OCC(=O)Nc2ccc3c(c2)OCO3)c(Cl)c1	1	-18	0.8	29%	-5
CCN(CC)S(=O)(=O)c1ccc(C)c(NC(=S)NC2CCCCC2)c1	.	.	2.6	-11%	-3
Cc1ccc2nc(NCc3ccc(F)cc3)c3nncn3c2c1	.	.	-4.5	-12%	1
Cc1cc(C)n2c(SCC(=O)Nc3cc(C)on3)nnc2n1	8	3	-2.0	-7%	2	Arbovirus inh repeat=-2
Cc1cccc(N2CCN(C(=O)c3cn4ccccc4n3)CC2C)c1 (configuration not stated)	20	.	-0.9	-6%	-12
COc1cc(-c2nc(-c3ccc(NC(=O)c4ccc5c(c4)OCO5)cc3)no2)cc(OC)c1OC	11	41	1.2	-1%	-1
CC1=CS/C(=C(/C#N)C(=O)NCc2ccco2)N1c1ccccc1	3	-53	-4.8	5%	-6	Arbovirus inh repeat=4
(further entries)
SMILES	Arbovirus inh	YopH inh	RecA intein inh	Mtb H37Rv	Mtb bLac sens	others
Cc1ccc(Cl)cc1NC(=O)COC(=O)CC(C)(C)C	23	.	7.2	8%	88
CCCn1c(SC(C)C(=O)N2CCOCC2)nc2ccc(Br)cc2c1=O (configuration not stated)	.	.	2.6	.	-12
O=C(Cn1cc([N+](=O)[O-])cn1)N1CCCc2ccccc21	-2	.	1.0	2%	-2
C#CCNC(=O)/C=C/c1ccc(C)cc1	1	-17	3.4	2%	-3
COc1cccc(N/C(SCc2ccccc2C)=C(/C#N)C(=O)NCc2cccs2)c1	-15	-9	3.8	11%	1
Cc1ccc(C(=O)N2CCN(C(=O)c3ccc(C)cc3)C2)cc1	1	.	-1.8	5%	-1
CCOC(=O)Cn1c(C)c(Br)c(COC)c(C#N)c1=O	.	.	.	-2%	7
C=C[C@@](C)(O)CC[C@@H]1[C@@]2(C)CCCC(C)(C)[C@@H]2CC[C@@]1(C)O	-1	.	3.5	4%	1
CCCOc1ccc(N2C(=O)CC(N(CCc3ccc(S(N)(=O)=O)cc3)C(C)=O)C2=O)cc1 (configuration not stated)	5	20	.	-2%	-4
CCOC(=O)c1cnc(N)nc1C(F)(F)F	5	.	61*	3%	-9
CCN(CC)CCNC(=O)C(=O)Nc1cc2c3c(c1)CCN3C(=O)CC2	.	.	-5.4	.	-5
Cc1cccc(NC(=O)CSc2nnc(-c3ccncc3)n2C)c1	6	-17	0.3	-2%	-13
CCN1CCN(S(=O)(=O)CC2(C)C3CCC2(C)C(=O)C3Br)CC1 (configuration not stated)	0	.	1.6	-2%	14
CCCCC1=NN(C(=O)c2ccco2)C(O)(C(F)(F)F)C1 (configuration not stated)	-8	.	-0.7	7%	-1
NNC(=O)COc1cccc2cccnc12	-11	-28	2.8	4%	-4
N#Cc1c(NC(=O)c2ccc(Br)o2)n(-c2ccccc2)c2nc3ccccc3nc12	.	.	-36	-6%	6
COc1ccc(CSc2nnc(CNS(C)(=O)=O)o2)cc1	7	-11	-0.6	-4%	-1
Cc1noc(C)c1COc1cccc(C(=O)Nc2ccc(OCc3ccccc3)cc2)c1	-13	-57	0.6	3%	-7
Cc1cccc[n+]1C1C(c2ccccc2)C(C#N)=C(C(=C=[N-])C#N)NC1(O)C1CC1 (configuration not stated)	-13	-14	-3.5	.	0
COc1ccc(CNC(=O)CCC(=O)Nc2ccc(Cl)cc2)cc1	.	.	0.4	.	1
COc1ccc(OC)c(C(=O)NC(CC(N)=O)c2ccc(NCCN3CCCC3)c([N+](=O)[O-])c2)c1 (configuration not stated)	.	.	0.4	.	-11
COc1ccccc1NC(=O)CCSc1nnnn1C	4	-17	0.2	.	?
Cc1nn(Cc2c(F)c(F)c(F)c(F)c2F)c(C)c1NC(=O)c1nn(C)cc1[N+](=O)[O-]	13	-26	-1.1	-12%	-4
Cc1cc(NC(=O)CC23CC4CC(C2)CC(CC(=O)Nc2cc(C)on2)(C4)C3)no1	7	-8	0.9	4%	1
O=C(CCn1c(=O)oc2ccccc21)N1CCN(c2ccccc2Cl)CC1	-5	-2	2.8	-3%	2
The list goes on.
SMILES	Arbovirus inh	YopH inh	RecA intein inh	Mtb H37Rv	Mtb bLac sens	others
CC1(C)Cc2c(cnn2-c2ccccc2)C(NC(=O)CCCN2CCCC2=O)C1 (configuration not stated)	.	.	1.0	.	?
COc1ccc(CCNC(=O)C(=O)NCc2ccccc2)cc1OC	-14	0	-0.6	2%	4
Cc1ccc(NCCNc2ccc(C)cc2)cc1	-2	-31	-1.3	5%	7
CCN(CC(=O)Nc1ccc(OC)cc1)C(=O)c1ccc(NS(=O)(=O)c2ccc(C(C)=O)cc2)cc1	.	.	0.4	.	-8
CCOC(=O)c1ccc(S(=O)(=O)N2CCN(CC(O)COc3ccc(C#N)cc3)CC2)cc1 (configuration not stated)	.	.	1.8	.	0
O=C(Cc1cccs1)Nc1ccc(-c2nnc(-c3ccco3)o2)cc1	-4	.	0.8	-2%	-8
O=C(/C=C/c1ccc2c(c1)OCO2)NCCSCc1ccc(Cl)cc1Cl	-38	-38	-4.1	.	.
CCc1ccc(NC(=O)C2CCN(S(=O)(=O)c3ccc4c(c3)CC(C)N4C(C)=O)CC2)cc1 (configuration not stated)	.	.	1.4	.	0
COc1ccc(C)cc1NS(=O)(=O)c1ccc2c(c1)N(C(C)=O)CCO2	.	.	1.1	.	3
COc1ccc(NC(=O)c2c(F)c(F)c(F)c(F)c2F)cc1Cl	13	-2	3.1	1%	-6
COc1cccc(OCC(=O)Nc2ccccc2C(N)=O)c1	0	-27	0.4	11%	-5
O=c1c2ccccc2nc(CSc2ncnc3nc[nH]c23)n1-c1ccccc1	-13	-15	-2.6	2%	18
COc1ccc(CCNC(=O)COc2cc(C)cc3oc(=O)cc(C)c23)cc1OC	.	.	-1.6	.	-2
O=C(NCc1cccnc1)c1cn(-c2ccccc2)nc1-c1cccs1	-16	-30	0.5	5%	0
O=C(O)c1cccc(N2C(=O)c3cc([N+](=O)[O-])cc4cc([N+](=O)[O-])cc(c34)C2=O)c1	.	.	-7.3	.	5
O=C(/C=C/c1cccc(Cl)c1)Nc1ccncc1	6	-33	-0.6	17%	0
COc1ccc(C(=O)Nc2ccc(N3CCN(Cc4ccccc4)CC3)cc2)cc1	-1	.	-1.0	5%	-8
CCn1c(SCC(N)=O)nc2sc3c(c2c1=O)CCN(C)C3	.	.	-8.7	-7%	-5

Quoted at random: three compounds from above, in no set order.
SMILES	Arbovirus inh	YopH inh	RecA intein inh	Mtb H37Rv	Mtb bLac sens	others
COc1ccc(C(=O)Nc2ccc(N3CCN(Cc4ccccc4)CC3)cc2)cc1	-1	.	-1.0	5%	-8
Cc1ccc(NCCNc2ccc(C)cc2)cc1	-2	-31	-1.3	5%	7
COc1ccc(NC(=O)c2c(F)c(F)c(F)c(F)c2F)cc1Cl	13	-2	3.1	1%	-6

Some of these compounds in order of length of the SMILES, highest first:
SMILES	Arbovirus inh	YopH inh	RecA intein inh	Mtb H37Rv	Mtb bLac sens	others
CCOC(=O)c1ccc(S(=O)(=O)N2CCN(CC(O)COc3ccc(C#N)cc3)CC2)cc1 (configuration not stated)	.	.	1.8	.	0
COc1ccc(CCNC(=O)COc2cc(C)cc3oc(=O)cc(C)c23)cc1OC	.	.	-1.6	.	-2
O=C(/C=C/c1ccc2c(c1)OCO2)NCCSCc1ccc(Cl)cc1Cl	-38	-38	-4.1	.	.

A portion of the library (hit frequency here may not be typical).
